GLA inh pH 4.5: inhibitors of human alpha-galactosidase A at pH 4.5. P06280. purified enzyme, 4-MU-alpha-Gal fluorescence, pH 4.5. activity change, negative = inhibition, % at 105 µM. 230,000 tested, under 10 active. AID 1467; inconclusive = small, poorly fitted or top-dose-only inhibition, or a rising curve; inactive = flat fitted curve, though single readings scatter; no compound was filed as active;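 also: 0% = full activity with enzyme and -100% = basal without enzyme; dose as in the result columns while the protocol names 77 µM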
Target sequence (P06280 whole entry, looked up): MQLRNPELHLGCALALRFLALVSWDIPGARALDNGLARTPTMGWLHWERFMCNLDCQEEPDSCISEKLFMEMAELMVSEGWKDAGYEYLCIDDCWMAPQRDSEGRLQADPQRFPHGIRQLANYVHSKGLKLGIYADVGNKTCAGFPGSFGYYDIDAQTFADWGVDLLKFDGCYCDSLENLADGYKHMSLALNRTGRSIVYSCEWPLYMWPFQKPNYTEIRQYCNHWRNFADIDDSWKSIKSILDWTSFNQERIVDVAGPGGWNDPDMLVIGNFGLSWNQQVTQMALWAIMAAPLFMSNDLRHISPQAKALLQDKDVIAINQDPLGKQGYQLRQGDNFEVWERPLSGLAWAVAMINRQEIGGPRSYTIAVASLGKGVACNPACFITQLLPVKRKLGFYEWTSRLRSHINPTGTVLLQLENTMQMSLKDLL
Rango release inh: prevents RanGTP from dissociating the Rango-importin beta complex; O95149+P62826; Biochemical FRET Rango-importin beta, RanGTP-induced dissociation; Potency, µM (top dose mostly 46.1 µM), for inactives: at the highest dose activity change, negative = inhibition; actives 0.071% (n = 340,000); AID 540253; active means falling FRET ratio curve, often poorly fitted, with flat reads before Ran was added; inconclusive means other falling curves, or compound fluorescence or quenching; inactive means flat or rising ratio curve;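 also: potency is read from the fitted curve at half-maximal effect; % of control where 0% means no effect; nearly all actives have a fitted effect of over 45% in size; -100% = wells without RanGTP and RCC1; the record marks most hits as doubtful in a second field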
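Rango FRET biosensor (snurportin-1 IBB flanked by N-terminal EYFP and C-terminal CFP10) at 0.1 uM, with 0.25 uM importin beta in PBS, 1mM DTT, 0.02% Tween-20, 0.1% BSA. 0.6 uM Ran, 2mM GTP and 0.2 uM RCC1 were then added for 45 min at room temperature. Inhibition read as loss of FRET rise.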
miR-21 FLuc: miR-21 reporter, rising signal; Potency, µM (series often up to 38.3 µM), without a hit: at the highest dose reporter change, positive = more light; 340,000 tested, under 10 active; HeLa miR-21 FLuc reporter, luciferase, 48 h; AID 2288; active = well fitted rising curve with a large enough effect; inconclusive = small, poorly fitted or top-dose-only effect; inactive = no such curve, though single readings can be large or run the other way;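 also: % of control where 0% means no effect; miR-21 action dims this reporter so a rising signal means less miR-21 action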
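Using DMEM plus 10% FBS, HeLa miR-21-FLuc cells are incubated with test compounds (final up to about 40uM) for 48 hours; firefly luciferase signal is then imaged following reagent-mediated lysis.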
Rango-impB inh: prevents formation of the Rango-importin beta complex | AID 540263 | Potency, µM (doses to about 92.2 µM), inactives show at the top dose inhibition of complex formation | Q14974 | Rango CFP/YFP FRET sensor + importin beta, 45 min | actives 0.031% (n = 340,000); active = rising FRET ratio curve, often small or poorly fitted; inconclusive = mostly compound fluorescence or quenching in the first reads; inactive = flat curves in all reads;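 also: potency is read from the fitted curve at half-maximal effect; 0% = DMSO wells and 100% = buffer wells lacking importin beta; nearly all actives have a fitted effect of over 15% in size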
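FRET biosensor Rango (snurportin 1 IBB between N-terminal EYFP and C-terminal Cerulean), 50 nM in PBS/1 mM DTT/0.02% Tween-20/0.1% BSA, preincubated 5 min RT with compound; 0.125 microM importin beta added, 45 min RT, CFP/YFP FRET ratio read.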
Numbers without * were called inactive; ? = inconclusive; . = not tested or not shown; & = joins results of further samples. A portion of the library; the hit share may differ from the screen's.

SMILES	GLA inh pH 4.5	Rango release inh	miR-21 FLuc	Rango-impB inh
Cn1cc(SCC(=O)Nc2ccc3c(c2)OCO3)c2ccccc21	-1.1	-13.3%	-13.6%	-4.9%
O=C(NCCCn1cccn1)C1CCC(=O)N(Cc2ccccc2F)C1 (configuration not stated)	.	?	1.0%	2.5%
O=C(c1cc2ccccc2o1)N1CCN(CCOc2ccccc2)CC1	.	-1.8%	.	-2.2%
O=C(NCc1cccc(Cl)c1)C1CCCO1 (configuration not stated)	3.1	-8.3%	-3.9%	-1.7%
COC(CNC(=O)c1coc2nc3ccccc3nc12)OC	14.7	?	-14.5%	?
Cc1ccc(C(=O)NNc2ncnc3ccccc23)cc1	-8.0	21.5%	-48.1%	3.9%
Cc1ccc(C)c(NC(=S)NNC(=O)c2ccc(Br)o2)c1	-1.1	2.2%	-30.3%	-4.4%
FC(F)Sc1ccc(NC(=S)N2CCN(c3ccccn3)CC2)cc1	.	-8.9%	2.6%	1.8%
Cc1cccc(C)c1N1C(=O)CC(N(O)c2ccccc2)C1=O (configuration not stated)	-17.8	-4.0%	0.7%	-4.2%
Cc1ccc(NC(=S)N(CCCN2CCN(C)CC2)Cc2cccs2)cc1	-1.4	-6.6%	-7.2%	0.6%
Fc1ccc(CSc2nnc(CN3CCOCC3)n2-c2ccccc2)c(Cl)c1	1.3	7.7%	-1.4%	0.2%
COc1ccc(OC)c(NC(=O)C2CCCN(S(C)(=O)=O)C2)c1 (configuration not stated)	.	20.2%	1.0%	6.2%
CCCC1=Nc2cc(C(=O)NCCCOC(C)C)ccc2Sc2ccccc21	-9.9	22.9%	18.6%	0.0%
CC[C@]1(C(=O)OC)[C@H]2C(=O)N(Cc3ccccc3)C(=O)[C@H]2[C@H]2CN=C(SCc3ccccc3)N21	.	-4.7%	.	-0.5%
c1ccc(C[n+]2c(-c3ccccc3)csc2Nc2ccccc2)cc1	-3.0	-4.7%	-6.6%	4.4%
Cn1cc(CN2CCC(C(O)c3cccs3)CC2)c(-c2ccccc2F)n1 (configuration not stated)	-1.9	3.5%	-4.3%	0.0%
CC(=O)O/N=C(/C)c1ncc(C(F)(F)F)cc1N1CCOCC1	2.9	-4.0%	0.9%	-0.1%
Cc1cc(=O)n2c(-c3ccc(Cl)cc3)csc2n1	-1.7	1.8%	-3.5%	-1.5%
COCCCn1c(SCC(=O)OC2CCCCC2)nnc1-c1cccs1	-1.6	-2.5%	-4.4%	-1.5%
CCOc1cc(C(=O)N=c2sccn2C)cc(Br)c1OC	.	11.4%	10.7%	-1.3%
CCCCN(CCCC)C(=S)N/N=C/c1c(C)[nH]n(-c2ccccc2)c1=O	1.8	-24.8%	10.4%	?
COC(=O)c1ccc(C)c(NC(=O)C2CC(=O)N(C3CCCC(C)C3C)C2)c1 (configuration not stated)	.	1.5%	.	0.9%
CCC(O)C1CCN(C(=O)c2ccc(OC3CCN(Cc4ccccn4)CC3)cc2)CC1 (configuration not stated)	.	13.9%	-3.8%	?
CN(Cc1ccccc1F)C(=O)C(Cc1ccccc1)NC(=O)c1ccccc1 (configuration not stated)	.	-11.1%	.	-2.8%
O=C(CN1CCC(Cc2ccccc2)CC1)NC(=O)NCc1ccco1	-5.1	23.3%	-4.1%	-2.8%
Cn1c(SCC(=O)c2ccccc2)nnc1-c1ccccn1	-2.5	34.0%	-47.8%	-1.8%
CC(C)(C)NC(=O)CSc1nc(-c2ccccc2)c(-c2ccccc2)[nH]1	-22.0	-10.5%	15.4%	6.0%
COc1cccc(OCc2nnc(SCC(=O)NCc3ccco3)n2CCc2ccccc2)c1	-7.9	-0.5%	-5.8%	-1.4%
CCc1c(C)nc2ncnn2c1N1CCC(C(=O)NCc2cccs2)CC1	-0.7	0.4%	-5.6%	1.0%
Cc1ccc(C(=O)CSc2nnc(C)s2)cc1	18.8	-7.5%	-56.0%	7.9%
COc1ccc(/C=N/n2cnn(Cc3ccccc3Cl)c2=S)cc1	-2.5	13.2%	-16.6%	-0.1%
CC(C)NC(=O)NC(=O)COC(=O)C1(C)CC1(Cl)Cl (configuration not stated)	3.8	-0.2%	-1.7%	-0.2%
COc1ccc(C=NCC2COc3ccccc3O2)cc1OC (configuration not stated)	-22.5	-7.5%	3.1%	-2.1%
CCc1ccc(NC(=O)C2CCN(S(=O)(=O)c3c(C)noc3/C=C/N(C)C)CC2)cc1	.	?	0.3%	?
COc1ccc(S(=O)(=O)N2CCC(C(=O)N3CCCCC3)CC2)cc1	.	2.0%	4.7%	2.5%
O=C(NCc1ccccc1)Nc1cccn(Cc2ccc(F)cc2)c1=O	-3.5	12.1%	18.9%	-2.3%
COc1ccc(C(CC(=O)NCc2ccccc2)Sc2n[nH]c(-c3ccccc3)n2)cc1 (configuration not stated)	7.4	33.4%	-2.2%	-0.2%
CCOC(=O)C1=NN(c2ccc(F)cc2)C2=NC(C)=C(C(=O)OC)C(c3cccs3)N12 (configuration not stated)	.	0.1%	.	-0.6%
COc1ccc(Cl)cc1S(=O)(=O)N1CCCC(C(=O)NCCc2ccccc2)C1 (configuration not stated)	.	-9.7%	6.3%	1.1%
COc1ccc(CCNC(=O)C2CCCN(S(C)(=O)=O)C2)cc1OC (configuration not stated)	-1.3	-2.3%	-0.8%	2.9%

Compounds above that have an NH in an aromatic ring:
SMILES	GLA inh pH 4.5	Rango release inh	miR-21 FLuc	Rango-impB inh
CCCCN(CCCC)C(=S)N/N=C/c1c(C)[nH]n(-c2ccccc2)c1=O	1.8	-24.8%	10.4%	?
CC(C)(C)NC(=O)CSc1nc(-c2ccccc2)c(-c2ccccc2)[nH]1	-22.0	-10.5%	15.4%	6.0%
COc1ccc(C(CC(=O)NCc2ccccc2)Sc2n[nH]c(-c3ccccc3)n2)cc1 (configuration not stated)	7.4	33.4%	-2.2%	-0.2%

Next structures follow:
SMILES	GLA inh pH 4.5	Rango release inh	miR-21 FLuc	Rango-impB inh
COC(=O)CSC1=C(C#N)C(c2ccccc2OC)C(C(=O)OC)C(=O)N1 (configuration not stated)	-5.5	-4.5%	-0.5%	0.5%
Cc1c(C(=O)N2CCCCC2)sc(NC(=O)C(C)C)c1C#N	-3.8	1.3%	-12.4%	-1.9%
CNC(=O)C1C2C=CC3(O2)C1C(=O)N(C1CC1)C3C(=O)NCc1ccc(OC)cc1 (configuration not stated)	-16.1	2.0%	-8.1%	-0.7%
O=C(COC(=O)/C=C/c1ccccc1)Nc1ccccc1Br	-1.2	-8.7%	-7.1%	-1.3%
COC(=O)c1ccc(Sc2ccc(Cl)cc2)c(N)c1	7.2	1.7%	-15.3%	-5.0%
Cc1ccc(NC(=O)c2nc[nH]c2C(=O)N2CCC(C)CC2)cc1	-0.1	1.6%	-4.1%	0.5%
CCC(C(=O)N1CCN(S(=O)(=O)c2sc(C(=O)O)c(C)c2C(=O)O)CC1)c1ccccc1 (configuration not stated)	.	13.6%	.	0.3%
CCOc1c(OC)cc(C2C(C#N)=C(N)Oc3n[nH]c(-c4ccncc4)c32)cc1OC (configuration not stated)	-10.2	6.8%	-1.3%	0.0%
CCC12CN3CC(CC)(CN(C1)C31C(=O)N(C)c3ccc(C)cc31)C2=O (configuration not stated)	.	-9.8%	0.9%	-0.7%
COc1ccc(C(=O)c2ccc(OC)c(OC)c2)cc1OC	-7.1	6.4%	-4.9%	0.4%
COc1cc(/C=C2\SC(=S)N(N3CCOCC3)C2=O)cc(OC)c1OC	16.0	0.7%	2.5%	0.4%
CC(=O)N1CCN(CC(=O)Nc2sccc2C#N)CC1	-3.6	5.3%	2.2%	0.0%
CCOc1ccc(NC(=O)CSc2nc3[nH]ncc3c(=O)n2-c2ccccc2OC)cc1	-8.6	-10.8%	-23.3%	10.0%
CC1CN(C(=O)C2CCCC2)C(C)CN1C(=O)C1CCCC1 (configuration not stated)	12.2	-11.1%	0.1%	0.4%
O=C(NNC(=S)Nc1ccccc1Cl)C1CC1	4.3	10.2%	-8.3%	-0.1%
CC(=O)N1c2ccc(S(=O)(=O)CCC(=O)O)cc2CC1C (configuration not stated)	2.7	17.5%	-0.2%	1.3%
COC(=O)C1=C(C(=O)OC)[C@@H]2Nc3ccccc3[C@@]23C[C@@H](C(=O)OC)N(C(=O)c2ccc(Br)cc2)C3=N1	14.3&-4.9	?	3.3%	3.6%
O=C(CC(=O)c1ccccc1O)c1ccc(F)cc1	-11.9	1.7%	9.9%	-1.2%
COc1ccc(S(=O)(=O)N(C)c2ccc(C(=O)Nc3cccnc3)cc2)cc1OC	.	-3.7%	12.9%	0.1%
Cc1ccc(/C=N/n2cnc3sc(C)c(C)c3c2=O)o1	3.6	?	-49.9%	3.7%
CC(C)=NN1C(c2nonc2N)=NOC1(C)C	-4.2	0.7%	3.1%	2.9%
CC(=O)/C(=N/Nc1ccccc1[N+](=O)[O-])N1CCCc2ccccc21	-4.1	-6.7%	5.1%	0.0%
O=C(Nc1ccc(C(F)(F)F)cc1)C1CCN(c2cnccn2)CC1	.	23.5%	14.9%&21.7%	-2.2%
COc1cccc(/C=N/n2nnnc2N)c1	5.7	29.3%	-16.6%	2.3%
O=C(O)c1ccc(F)c(S(=O)(=O)Nc2ccccc2)c1	11.9	2.0%	-4.2%	0.3%
CCNC(=S)N1CCC(C(=O)c2ccc3c(c2)OCCO3)CC1	0.5	-0.2%	-2.6%	-2.1%
CC(C)=CC(=O)N1CCCC(N2CCN(c3ccccc3C)CC2)C1 (configuration not stated)	.	1.1%	-6.8%	3.1%
CCOc1ccc(N2CC(C(=O)Nc3cccc(C)c3C)CC2=O)cc1 (configuration not stated)	2.8	-11.5%	-2.5%	-0.1%
Cc1cc(OC(=O)c2cccc(Cl)c2)c([N+](=O)[O-])c(=O)[nH]1	.	14.4%	-1.7%	-3.5%
Cc1cc(C)c(S(=O)(=O)N2CCC(C(=O)NCc3ccco3)CC2)c(C)c1	-5.3	0.1%	-2.1%	-0.4%
CC12CCC(=O)C=C1CCC1C2C(O)CC2(C)C1CCC21OCC1=O (configuration not stated)	.	-2.5%	.	-3.0%
Cn1c(=O)c(C(=O)NNC(=O)c2cccc(Cl)c2)c(O)c2ccccc21	.	-17.3%	-8.4%	0.2%
OC1(c2ccccc2)CN(c2ccccc2)C2=[N+]1CCS2 (configuration not stated)	2.1	9.8%	-3.0%	11.2%
O=C(O)CCCC(=O)N1CCc2cc(S(=O)(=O)NCc3ccccc3)ccc21	-3.2	-18.8%	-2.7%&-1.5%	-0.9%
CC(=O)NC(=S)Nc1ccc(NC(=S)NC(=O)c2cccs2)cc1	.	-8.4%	-2.9%	2.7%
COc1ccc(-c2nn(Cc3ccccc3)cc2C(=O)N2CCN(c3ncccn3)CC2)cc1OC	.	0.9%	.	1.6%
CC(C)C[C@H](CO)Nc1nc(Nc2cccc(Cl)c2)c2ncn(C(C)C)c2n1	-13.7	-10.8%	14.8%	-1.2%
CC(NC(=O)N1CCOCC1)c1ccccc1 (configuration not stated)	.	-7.0%	2.4%	?
CCCc1[nH]nc2c1C(c1cn[nH]c1-c1ccc(F)cc1)C(C#N)=C(N)O2 (configuration not stated)	2.9	-1.2%	9.3%	-0.9%
O=C(Cc1ccccc1)Nc1ccc(Br)c(Cl)c1	1.8	-15.2%	-25.5%	1.5%
Cc1nc(NC(=O)C2CC2)sc1C(=O)NC1CCCCC1	-2.5	14.7%	0.1%	4.6%
COc1ccccc1N(CC(=O)N1CCC(C(N)=O)CC1)S(=O)(=O)c1ccccc1	.	0.5%	-0.4%	1.0%
O=[N+]([O-])c1ccc(-c2ncc(-c3ccc(Br)cc3)o2)cc1	0.6	5.6%	-14.4%	0.1%

Complete entries as entered above.
Profile of `O=[N+]([O-])c1ccc(-c2ncc(-c3ccc(Br)cc3)o2)cc1` : GLA inh pH 4.5 = 0.6; Rango release inh = 5.6%; miR-21 FLuc = -14.4%; Rango-impB inh = 0.1%
Profile of `CC(C)C[C@H](CO)Nc1nc(Nc2cccc(Cl)c2)c2ncn(C(C)C)c2n1` : GLA inh pH 4.5 = -13.7; Rango release inh = -10.8%; miR-21 FLuc = 14.8%; Rango-impB inh = -1.2%

Bioassay records deposited in PubChem BioAssay by National Center for Advancing Translational Sciences (NCATS).
